GIRK2 activ = GIRK2 channel activation; P48051; 63,000 compounds, 0.05% hits; calls only for hits at 25 µM; HEK293-GIRK2 thallium flux, Thallos fluorescence; AID 1259325;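 active = among the strongest 0.2% of first-round signals and kept after retests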;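 also: first round at about 10 µM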
Target sequence (P48051 whole entry, looked up): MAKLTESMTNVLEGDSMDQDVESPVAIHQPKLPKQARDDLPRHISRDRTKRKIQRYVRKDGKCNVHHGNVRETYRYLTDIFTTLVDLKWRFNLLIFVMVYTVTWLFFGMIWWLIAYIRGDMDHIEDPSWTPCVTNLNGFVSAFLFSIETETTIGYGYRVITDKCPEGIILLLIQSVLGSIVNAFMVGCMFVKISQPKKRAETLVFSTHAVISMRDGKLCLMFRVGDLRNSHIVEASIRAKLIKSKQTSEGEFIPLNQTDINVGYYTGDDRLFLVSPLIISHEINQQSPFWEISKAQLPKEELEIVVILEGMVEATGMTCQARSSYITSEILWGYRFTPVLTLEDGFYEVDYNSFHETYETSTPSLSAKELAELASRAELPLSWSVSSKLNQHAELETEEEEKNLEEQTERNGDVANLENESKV
Calls only; i = inactive.

SMILES	GIRK2 activ
CCCCN1CC(c2nc3ccccc3n2Cc2ccccc2Cl)CC1=O (centres undefined)	i
C[C@H](NC(CCc1ccccc1)C(=O)O)C(=O)N1CCC[C@H]1C(=O)O (some centres undefined)	i
COc1ccc(-n2ccnc(NC(=O)c3ccccn3)c2=O)cc1	i
O=C(c1cccc(Cl)c1)N(CCc1cccs1)Cc1ccoc1	i
CSc1nc2ccc(NC(=O)c3cc(-c4ccco4)on3)cc2s1	i
Cc1ccsc1C(O)CNC(=O)NC1CCCCC1 (centres undefined)	i
CC(C)NC(=O)Cn1cc(-c2nc(-c3ccc(Cl)cc3)no2)ccc1=O	i
CC(O)(CNC(=O)c1c(F)cccc1Cl)c1ccco1 (centres undefined)	i
CC(C)NC(=O)CCCCn1c(=O)c2ccccc2n(CC(=O)NC(C)CCc2ccccc2)c1=O (centres undefined)	i
O=C(CCn1nnc2ccccc2c1=O)NCC1CCS(=O)(=O)C1 (centres undefined)	i
O=C(NCC1(c2ccc(F)cc2)CCOCC1)c1cnc2ccccc2n1	i
Cc1ccc(-c2ccc(S(=O)(=O)N3CCCC3C(=O)O)cc2)cc1 (centres undefined)	i
CCOC(=O)c1ccc(Nc2nn3c(=O)c4cc(C)ccc4nc3s2)cc1	i
CCN1CCN(CC(O)COc2ccc(C)cc2)CC1 (centres undefined)	i
CCc1ccc(S(=O)(=O)NCCNC(=O)c2ccc(NC(=O)C(C)(C)C)cc2)s1	i
COc1ccc(/C=C/C(=O)c2ccc(OC)cc2OC)c(OC)c1	i
COc1ccc(N2CCCn3c2nc2c3c(=O)n(Cc3ccc(C)cc3)c(=O)n2C)c(OC)c1	i
O=S(=O)(c1ccccc1Cl)N1CCC2(CC1)OCCS2	i
CCOc1ccc(NC(=O)CSc2nc3c4cc(OC)ccc4n(C)c3c(=O)n2CC)cc1	i
Cc1cccc(N2CCCn3c2nc2c3c(=O)n(CCN3CCOCC3)c(=O)n2C)c1C	i
COc1ccc(CC(=O)Nc2ccc3c(c2)CCCN3C(=O)c2ccccc2)cc1OC	i
COc1ccc(C)cc1NC(=O)CN1N=NC2C(=O)N(c3ccc(F)cc3)C(=O)C21 (centres undefined)	i
Cc1ccc(NC(=O)c2ccc(OC(C)C)cc2)cc1N1CCCC1=O	i
CC(=O)c1ccc(NC(=O)c2coc(NC(=O)C3CCC3)n2)cc1	i
COc1ccc(NC(=O)c2nnn(-c3ccc(F)c(C)c3)c2-c2cccnc2)cc1OC	i

Two compounds picked at random from those above, as already listed:
SMILES	GIRK2 activ
O=S(=O)(c1ccccc1Cl)N1CCC2(CC1)OCCS2	i
Cc1ccsc1C(O)CNC(=O)NC1CCCCC1 (centres undefined)	i

Returning to the listing, starting 2 compounds before the break.
SMILES	GIRK2 activ
CC(=O)c1ccc(NC(=O)c2coc(NC(=O)C3CCC3)n2)cc1	i
COc1ccc(NC(=O)c2nnn(-c3ccc(F)c(C)c3)c2-c2cccnc2)cc1OC	i
Cc1oc(-c2cccc(Cl)c2)nc1CSc1nc2c(c(=O)[nH]1)CN(Cc1ccc(F)cc1)CC2	i
CCCc1ccc(C(=O)NCCCn2ccnc2-c2ccccc2)cc1	i
O=C(Cn1cnc2c(-c3ccc(Cl)cc3)csc2c1=O)Nc1ccc(F)cc1F	i
COc1cccc(-c2noc(Cn3nc4ccc(-c5ccccc5)nn4c3=O)n2)c1OC	i
O=C(NCc1ccccn1)c1ccc(OCc2nc(C3CC3)cs2)cc1	i
Cc1cc(C)c(S(=O)(=O)N2CCN(C(=O)Cc3ccccc3)CC2)c(C)c1	i
COc1ccccc1C1(CNC(=O)c2ccco2)CCOCC1	i
Cc1ccc(N2CC(c3nc4ccccc4n3Cc3ccccc3)CC2=O)cc1C (centres undefined)	i
CNC(=O)C1CCC(Cn2c(=O)c3sccc3n(CC(=O)Nc3cccc(OC)c3)c2=O)CC1 (centres undefined)	i
O=C(c1ccc[nH]c1=O)N1CCN(Cc2nc3ccccc3n2Cc2ccccc2)CC1	i
CCOC(=O)CCC(=O)NCc1n[nH]c(=O)c2ccccc12	i
Cn1nc(C2CCCN(S(=O)(=O)Cc3cccc(F)c3)C2)n(-c2ccccc2)c1=O (centres undefined)	i
O=C(Cn1cncc(-c2nc(-c3ccccc3)cs2)c1=O)N1CCCC1	i
Cc1ccc(-c2ccc(N3CCCC(C(=O)N4CCC5(CC4)OCCO5)C3)nn2)cc1C (centres undefined)	i
Cc1[nH]c(=O)[nH]c(=O)c1CCc1nnc(SCC(=O)NCc2ccc3c(c2)OCO3)o1	i
O=C(Nc1nc2ccc(F)cc2s1)C1CCN(S(=O)(=O)c2ccc(F)cc2)CC1	i
CC(C)C(NC(=O)C12CC3CC(CC(C3)C1)C2)C(=O)NN (centres undefined)	i
CC(C)c1ccc(OCC(=O)NCC#CCN2CCCC2)cc1	i
Cc1cc(C(F)(F)F)nc(CCNC(=O)/C=C/c2ccc3c(c2)OCO3)n1	i
CCOc1ccccc1NC(=O)Cn1c(C)cc(C)c(-c2nc(-c3cccc(Cl)c3)no2)c1=O	i
O=C(NCCc1csc(-n2cccn2)n1)c1ccc(OC(F)(F)F)cc1	i
O=C(CSc1cccc2cccnc12)Nc1ccccc1Cl	i
CN1CCC(CNC(=O)Cc2ccc(-c3ccccc3)cc2)CC1	i
O=C(CN1CC(c2nc(Cc3ccccc3)no2)C1)c1ccc(Cl)cc1	i
CCOc1cccc2sc(=NC(=O)c3nn(C)cc3C)n(C)c12	i

11 structures already listed, sorted by count of non-hydrogen atoms, low to high:
SMILES	GIRK2 activ
CC(C)C(NC(=O)C12CC3CC(CC(C3)C1)C2)C(=O)NN (centres undefined)	i
CCOC(=O)CCC(=O)NCc1n[nH]c(=O)c2ccccc12	i
COc1ccccc1C1(CNC(=O)c2ccco2)CCOCC1	i
CN1CCC(CNC(=O)Cc2ccc(-c3ccccc3)cc2)CC1	i
O=C(CN1CC(c2nc(Cc3ccccc3)no2)C1)c1ccc(Cl)cc1	i
Cc1cc(C(F)(F)F)nc(CCNC(=O)/C=C/c2ccc3c(c2)OCO3)n1	i
O=C(Cn1cnc2c(-c3ccc(Cl)cc3)csc2c1=O)Nc1ccc(F)cc1F	i
Cn1nc(C2CCCN(S(=O)(=O)Cc3cccc(F)c3)C2)n(-c2ccccc2)c1=O (centres undefined)	i
Cc1[nH]c(=O)[nH]c(=O)c1CCc1nnc(SCC(=O)NCc2ccc3c(c2)OCO3)o1	i
COc1cccc(-c2noc(Cn3nc4ccc(-c5ccccc5)nn4c3=O)n2)c1OC	i
CCOc1ccccc1NC(=O)Cn1c(C)cc(C)c(-c2nc(-c3cccc(Cl)c3)no2)c1=O	i

Remaining list, next part:
SMILES	GIRK2 activ
O=C(c1ccc(OC(F)(F)F)cc1)N1CCCSCC1CN1CCCC1 (centres undefined)	i
O=C(Cn1cnc2ccccc21)NCC1CCC(c2nc3ccccc3[nH]2)CC1 (centres undefined)	i
Cc1nc(-c2cccs2)sc1CNC(=O)c1ccc(-n2cccn2)nn1	i
CCOc1ccc(NC(=O)N2C3CCC2COC3)cc1	i
Brc1ccc(-c2ccc(-c3nnc(-c4ccco4)o3)o2)cc1	i
Cc1nc(Nc2ccc(NC(=O)Nc3ccc4c(c3)OCO4)cc2)cc(-n2cccn2)n1	i
COCCNC(=O)CSc1nc(-c2ccc(C)cc2)[nH]c1-c1ccccc1	i
Cc1ccc2nc3sc(Nc4ccccc4F)nn3c(=O)c2c1	i
COCCCNC(=O)/C(C#N)=C1\N=C(NC(=O)c2ccco2)c2ccccc21	i
COC(=O)c1ccc(NS(=O)(=O)CCOc2ccccc2)cc1	i
Cc1nc2ccccn2c1C(=O)Nc1ccc(CC(=O)NCc2cccs2)cc1	i
O=C(COc1coc(C(=O)N2CCCC2)cc1=O)Nc1ccccc1	i
O=C(Cn1nc2nc(Nc3ccc(F)cc3)ccn2c1=O)NCc1ccc(F)cc1Cl	i
CCc1cc2c(=O)c(-c3ccc4c(c3)OCCCO4)coc2cc1OCC(N)=O	i
COc1ccc(NS(=O)(=O)c2[nH]ncc2C(=O)NCc2ccc(SC)cc2)cc1	i
CC(=O)Nc1cccc(C2=NN(C(=O)c3ccco3)C(c3ccco3)C2)c1 (centres undefined)	i
COc1ccc(C(O)=C2C(=O)C(=O)N(c3cc(C)on3)C2c2ccc(C)cc2)cc1C (centres undefined)	i
Cn1nc(CNC(=O)c2cc3ccccc3oc2=O)cc1-c1ccco1	i
NC(=O)CSc1nnc(N2CCN(C(=O)Cn3cnc4ccccc43)CC2)s1	i
CCc1ccc(NC(=O)CSc2ccc(N3CCCCCC3)nn2)cc1	i
COc1ccccc1NC(=O)Cn1ccn(-c2cccc(Cl)c2)c(=O)c1=O	i
COC(=O)c1sccc1S(=O)(=O)N1CCC(CSc2nc(C)cs2)CC1	i
COCCCNC(=O)CCn1c(=O)[nH]c2ccccc2c1=O	i
COc1cc(NC(=O)Cn2c(C)cc(C)c(S(=O)(=O)c3ccc(C)c(C)c3)c2=O)cc(OC)c1	i
COc1ccc(OC)c(NC(=O)Cn2c(C)cc(C)c(C#N)c2=O)c1	i

More entries follow:
SMILES	GIRK2 activ
Cc1cccc(OCCn2c(CCNC(=O)C(C)(C)C)nc3ccccc32)c1	i
C[C@]12CCC(=O)C=C1CC[C@@H]1[C@@H]2C(=O)C[C@@]2(C)[C@H]1CC[C@]2(O)C(=O)CO	i
COc1cccc(S(=O)(=O)Nc2ccc(Nc3cc(-n4cccn4)nc(C)n3)cc2)c1	i
COc1ccc(C(=O)Nc2sc3c(c2-c2nc4ccccc4s2)CCN(C(C)=O)C3)c(OC)c1	i
Cc1nc(C)c(C(=O)C2=C(O)C(=O)N(CCN(C)C)C2c2ccccc2)s1 (centres undefined)	i
Cn1nc(-c2cccc(NC(=O)Cc3ccc(-c4ccccc4)cc3)c2)ccc1=O	i
COC(=O)c1cccc(NC(=O)Cn2nc3c(N4CCCCCC4)nccn3c2=O)c1	i
COc1cc(Nc2ncc(-c3ccccc3)o2)cc(OC)c1	i
Cc1ccc(-n2nnc(C(=O)NCCc3c[nH]c4ccccc34)n2)cc1	i
COc1ccc(NC(=O)CCNS(=O)(=O)c2cc(N(C)S(C)(=O)=O)c(C)cc2C)cc1	i
COc1ccc(-c2cc(N3CCN(C(=O)/C=C/c4ccco4)CC3)ncn2)cc1	i
COC(=O)c1ccc2c(=O)n(Cc3ccc(C(=O)NCCN4CCCC4)cc3)c(=S)[nH]c2c1	i
CC(C)(C)C(=O)NCCCN1CCN(c2ccccc2)CC1	i
Cc1noc(C)c1CCn1cccc(-c2nc(C3CC3)no2)c1=O	i
COc1cccc(N2CC(C)Cn3c2nc2c3c(=O)n(CC(C)C)c(=O)n2C)c1 (centres undefined)	i
Cn1cccc1C(CNC(=O)c1ccc2c(c1)OCO2)N1CCOCC1 (centres undefined)	i
CCC(C(=O)N1CCN(CC(=O)c2ccco2)CC1)c1ccccc1 (centres undefined)	i
Cc1cc(-c2nnc(NC(=O)c3csc(-c4ccccc4)n3)o2)c(C)o1	i
COc1ccc(-n2c(=O)c3ccccc3n(CC(=O)NCC3CCCO3)c2=O)cc1OC (centres undefined)	i
CCOc1cccc(-c2noc(CSc3nc4[nH]ncc4c(=O)n3-c3ccc(F)c(F)c3)n2)c1	i
O=C(Nc1ccccc1)C(Cc1ccccc1)NC(=O)C12CC3CC(CC(C3)C1)C2 (centres undefined)	i
O=C(NCc1ccc(F)cc1Cl)c1nnn(-c2ccccc2Cl)c1-c1ccccn1	i
COc1cccc(N2C(=O)C3N=NN(Cc4nc(-c5ccc(Cl)cc5)no4)C3C2=O)c1 (centres undefined)	i
O=C(Nc1ccccc1)c1cn(-c2ccc(S(=O)(=O)N3CCCC3)cn2)cn1	i
O=C(NCc1ccccn1)c1cc2n(n1)CCCO2	i

(cont.)
SMILES	GIRK2 activ
Cc1ccc(C)c(Cn2nc(-c3ccc(F)cc3)c3sc(N4CCOCC4)nc3c2=O)c1	i
CCn1c(SCCO)nc2c1c(=O)n(C)c(=O)n2C	i
CCOC(=O)c1cn(Cc2cccc(C#N)c2)nc1S(=O)(=O)N1CCCCCC1	i
CN1CCN(CC(=O)C23CC4CCC(CC(C4)C2)C3)CC1	i
FC(F)(F)c1nnc(C2CCN(CCC3OCCCO3)CC2)o1	i
C#CCOCC1CCN(C(=O)Nc2ccc(Cl)c(Cl)c2)CC1	i
COc1cccc(-c2cc(C(=O)N3CC(c4nc(-c5cnccn5)no4)C3)[nH]n2)c1	i
COc1cc(Cl)cc2c1OCC(=O)N(c1ccc(C(N)=O)cc1)C2	i
O=C(NCC1(c2ccc(F)cc2)CC1)C(=O)NC1CCCC1	i
CCCCOc1ccc(C2CC3C4NN=C(SCC(=O)N5CCCC5)N4C=CN3N2)cc1 (centres undefined)	i
CCOc1ccccc1-c1noc(Cn2c(=O)n(C(C)C)c(=O)c3ccccc32)n1	i
COC(=O)c1ccc2c(=O)n(-c3cccc(OC)c3)c(N3CCN(c4ccccn4)CC3)nc2c1	i
O=C(NC1CCCCC1)c1ccc2c(=O)nc3c(-c4ccccc4)n[nH]n3c2c1	i
CCS(=O)(=O)NCC1(c2ccc(F)cc2)CC1	i
COc1ccc(N2Cc3cnc(Nc4ccccc4)nc3N([C@@H]3CC[C@@H](O)C3)C2=O)cc1	i
O=C(NCC(O)(c1ccco1)C1CC1)c1cccs1 (centres undefined)	i
COC(=O)c1ccc2c(=O)n(CCC(=O)NCc3cccs3)c(=S)[nH]c2c1	i
O=C(CSc1nnc(CCc2nc3ccccc3[nH]2)o1)NC1CC1	i
Cc1ccc(C(O)CNC(=O)C2(c3ccccc3)CCOCC2)o1 (centres undefined)	i
COc1cc(/C=C/C(=O)N2CC(c3nc(-c4ccc[nH]c4=O)no3)C2)cc(OC)c1OC	i
COc1ccc(NC(=O)NNc2nc3c(-c4ccccc4)nnn3c3ccccc23)cc1OC	i
CC(C)C(=O)Nc1cnc(N2CCN(c3ccccc3)CC2)nc1	i
CCCn1c(=O)c2cc(Cl)ccc2n2c(SCC(=O)Nc3ccc(C)cc3)nnc12	i
COC(=O)c1sccc1S(=O)(=O)NCCN1CCN(C(=O)OC(C)(C)C)CC1	i
CS(=O)(=O)c1ccc2nc(NC(=O)c3ccc4c(c3)ncn4-c3ccccc3)sc2c1	i
CCN(Cc1ccccc1)C(=O)C(=O)c1c[nH]c2ccccc12	i
N=C1c2ccccc2CN1c1ncc(C(F)(F)F)cc1Cl	i
O=C(NCC(O)C1CCCCC1)c1cccs1 (centres undefined)	i

These rows are one share of the data; rates above refer to the full screens.
